USP2a block: blocks human ubiquitin-specific protease USP2a. O75604. USP2 core, Ub-CHOP2 coupled fluorogenic reporter, 485/531. Potency, µM (highest dose often 38.3 µM), inactives show at the top dose activity change, negative = inhibition, most hits filed as inhibitors. actives 0.01% (n = 330,000). AID 463254;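 further: potency means the concentration at half of the fitted maximal effect; plate controls were DMSO wells for no effect and full inhibition by NEM control for full effect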
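Cell-free coupled assay: 10nM USP2 core preincubated 30min RT with compound in Tris-HCl pH 8.0/CaCl2/CHAPS buffer, then 25nM Ub-CHOP2 and 25nM reporter substrate; fluorescence (Ex 485/Em 531) read after 60min RT, normalized to NEM inhibition, concentration-response curves fitted.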
Eya2 inh: blocks the phosphatase activity of human Eya2. AID 488837. actives 0.006% (n = 330,000). O00167. recombinant Eya2, OMFP fluorescence dephosphorylation (OMFP is methylfluorescein phosphate). Potency, µM (series often up to 76.9 µM), without a hit: at the top dose activity, negative = inhibition, hits mostly inhibitors; further: potency means the concentration at half of the fitted maximal effect; on the % scale 0 is the no-effect control and ±100 the full control effect
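Eya2 (0.2 uM) preincubated 10 min at ambient with compound, then OMFP substrate added at 50 uM; 10 min reaction in 50 mM HEPES pH 7.5, 50 mM NaCl, 5 uM MgCl2, 0.05% BSA, 1 mM DTT. Fluorescence read at Ex 485/Em 525 nm.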
A-T KAP1 phos: potential ataxia-telangiectasia treatment | […] A-T fibroblasts, KAP-1 phosphorylation AlphaLISA; neocarzinostatin DNA damage 30 min before lysis | Potency, µM (series often up to 57.5 µM), inactives show top-dose activation, most hits filed as activators | actives 0.19% (n = 320,000); further: potency means the concentration at half of the fitted maximal effect; % of control where 0% means no effect; nearly all actives have a fitted effect of over 45% in size
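ATM-like activity read as KAP-1 phosphorylation via AlphaLISA donor/acceptor antibody pairs after lysis and 6 hr at 25C. Cells were ATM-null patient fibroblasts ([…], hTERT), dosed 60 min, then exposed to the DSB inducer NCS for 30 min.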
TSHR antag: antagonists of human thyroid stimulating hormone receptor | TSHR-expressing cells, TSH-stimulated cAMP HTRF, 2 h; active compounds read low | activity change, negative = inhibition, % at 11.5 µM | actives 0.2% (n = 330,000);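 active means activity change below a set negative limit, meaning inhibition stronger than a set level, cut at about -70% in these data; inconclusive means activity change between two set negative limits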; further: on the % scale 0 is the no-effect control and ±100 the full control effect
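Freshly harvested TSHR cells receive pin-tooled compound, then EC80 TSH at 4nM final. After 2 hours at 37 deg C, antibody in lysis buffer and cAMP-d2 are added; 30 minutes at ambient temperature precede the HTRF read.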
TRPV1 agonist: agonists of human vanilloid receptor 1 (TRPV1); Q8NER1; TRPV1-expressing cells, Fluo-8 calcium influx, agonist mode; activation, % at 8.33 µM; actives 0.19% (n = 320,000); in the data active means activation above about 80%; inconclusive means between about 30% and that limit; further: 0% is about no effect
Target sequence (Q8NER1 whole entry, looked up): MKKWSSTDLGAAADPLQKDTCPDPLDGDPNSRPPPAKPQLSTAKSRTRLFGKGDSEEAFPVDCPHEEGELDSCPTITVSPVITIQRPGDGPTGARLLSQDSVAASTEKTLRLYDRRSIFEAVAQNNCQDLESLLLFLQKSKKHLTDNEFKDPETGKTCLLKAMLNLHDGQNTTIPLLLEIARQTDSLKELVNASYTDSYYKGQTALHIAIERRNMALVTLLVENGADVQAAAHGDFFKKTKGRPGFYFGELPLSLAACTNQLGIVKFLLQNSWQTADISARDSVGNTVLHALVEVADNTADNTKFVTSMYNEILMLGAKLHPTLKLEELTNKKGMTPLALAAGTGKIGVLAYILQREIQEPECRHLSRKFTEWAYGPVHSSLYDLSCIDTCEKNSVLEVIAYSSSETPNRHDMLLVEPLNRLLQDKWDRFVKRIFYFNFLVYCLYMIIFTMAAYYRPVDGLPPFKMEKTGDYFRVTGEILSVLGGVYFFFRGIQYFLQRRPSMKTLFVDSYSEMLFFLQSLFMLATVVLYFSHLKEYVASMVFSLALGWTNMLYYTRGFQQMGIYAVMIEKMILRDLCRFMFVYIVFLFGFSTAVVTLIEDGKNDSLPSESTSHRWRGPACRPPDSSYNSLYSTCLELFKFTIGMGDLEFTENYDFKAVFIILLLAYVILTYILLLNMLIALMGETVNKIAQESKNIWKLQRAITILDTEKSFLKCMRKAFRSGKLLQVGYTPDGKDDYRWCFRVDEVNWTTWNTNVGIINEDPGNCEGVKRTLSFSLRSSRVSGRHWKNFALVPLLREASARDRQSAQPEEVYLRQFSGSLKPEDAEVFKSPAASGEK
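Cells expressing TRPV1 were dye-loaded with Fluo-8 and read kinetically: 10 s baseline, 3 min after compound (agonist portion), then 2 min after EC20 capsaicin (allosteric enhancer portion). Calcium-bound dye fluorescence at 480/520 nm.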
TCR activator: T cell receptor activation | 330,000 tested, under 10 active | Potency, µM (titrated, usually from 9.22 µM), for inactives: top-dose activation of IL-2 secretion, hits mostly activators | primary human leukocytes, anti-CD3, IL-2 HTRF, 48 h; further: % of control where 0% means no effect
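IL-2 release read by HTRF sandwich (Eu cryptate donor, d2 acceptor, 665 nm emission) after 48 hr exposure of primary human leukocytes to compound together with anti-CD3 beads in the absence of co-stimulatory signals.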
Mito fusion act: inhibitors of mitochondrial division or activators of mitochondrial fusion | actives 0.23% (n = 320,000) | Potency, µM (highest dose often 46.1 µM), for inactives: top-dose growth rescue (activation), most hits filed as activators | S. cerevisiae fusion-defective mutant growth rescue, CellTiterGlo 48 h;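 further: potency means the concentration at half of the fitted maximal effect; % of control where 0% means no effect; nearly all actives have a fitted effect of over 45% in size; temperature-sensitive fusion mutants such as fzo1-1 at 37 °C on non-fermentable ethanol glycerol medium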
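S. cerevisiae fusion-defective temperature-sensitive mutants (e.g. fzo1-1, mgm1-5) grown 48 h at 37C in YPEG (ethanol/glycerol non-fermentable) medium with 23 nl compound per well; growth rescue read as CellTiterGlo luminescence.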
KCNH2 3.1 block: blocks the human KCNH2 3.1 channel isoform; U2OS KCNH2 3.1, thallium flux FluxOr; active compounds read low; AID 720553; actives 0.95% (n = 340,000); activity change, % (tested at about 1.8 µM);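 active means maximum activity change below -70%; inconclusive means maximum activity change from -70% to -50%; inactive means maximum activity change above -50%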;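 further: thallium influx rate constant from kinetic fluorescence after stimulation buffer; on the % scale 0 is the no-effect control and ±100 the full control effect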
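FluxOr-based Tl+ influx in U2OS cells transduced with KCNH2 3.1 virus; rate constants normalized to DMSO controls.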
ELG1 repair inh: ELG1-dependent DNA repair inhibition; HEK293T ELG1-luciferase reporter, luminescence, 16 h; DNA damage induced by 5-fluorouridine; Potency, µM (series often up to 46.1 µM), without a hit: top-dose activity change, negative = inhibition, most hits filed as inhibitors; actives 2.3% (n = 330,000); AID 504467; further: potency means the concentration at half of the fitted maximal effect; on the % scale 0 is the no-effect control and ±100 the full control effect; nearly all actives have a fitted effect of over 55% in size
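DMSO vehicle served as the neutral condition. Each well held 2,000 cells given 5-fluorouridine plus compound; after 16 hr at 37 °C/5% CO2, ONE-Glo was added and luciferase measured 30 min later.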
* marks the source's active call; other numbers are inactive results; ? = inconclusive; · = not tested or not shown; & = joins results of further samples; [ ] = another dose, or the depositor's remark. Unless noted, the call rests on the fitted dose curve; in most records, active means well fitted curve in the direction sought with a large enough effect; inconclusive means small, poorly fitted or top-dose-only effect, or another doubt; inactive means no such curve, though single readings can be large; an effect the other way counts as inactive or inconclusive.

cpd | Structure | ELG1 repair inh | TRPV1 agonist | Mito fusion act | USP2a block | Eya2 inh
1 | CC1CCc2cc(F)cc3c(=O)c(C(=O)O)cn1c23 (stereo not given) | -3% | -4 | -1% | 0% | 1%
2 | CCCC(CCC)C(=O)O | 14% | -2 | -56%&2%[inhibitor] | 0% | 14%&-25%
3 | CC(=O)O[C@H]1C(=O)[C@@]2(C)C([C@H](OC(=O)c3ccccc3)[C@]3(O)C[C@H](OC(=O)[C@H](O)[C@@H](NC(=O)c4ccccc4)c4ccccc4)C(C)=C1C3(C)C)[C@]1(OC(C)=O)CO[C@@H]1C[C@H]2O (stereo not given in full) | -25% | 0 | 0% | 1% | 3%
4 | CN(C)CC/C=C1/c2ccccc2Sc2ccc(Cl)cc21 | 10%&-1% | 0&3 | -6%&5% | 2%&3% | 4%&7%
5 | COc1ccc2c(c1OC)C(=O)OC2C1c2c(cc3c(c2OC)OCO3)CCN1C (stereo not given) | -19%&-9%&7% | 8&2&-2 | -4%&-9%&-6% | -2%&0%&3% | 2%&-15%&-3%
6 | COC(=O)c1[nH]c2cc(C)ccc2c1NC(=O)CN1CCCc2ccccc21 | ? | ? | 6% | -7% | -10%
7 | Nc1ccc(S(=O)(=O)c2ccc(N)cc2)cc1 | -5% | -2 | -5% | 6% | -13%
8 | O=C1CCC(C(=O)O)N1 (stereo not given) | -4% | 3 | 0% | -1% | -15%
9 | N[C@@H](Cc1ccc(O)c(O)c1)C(=O)O | · | · | 0% | · | -3%
10 | OC[C@H]1O[C@@H](O[C@@H]2[C@@H](CO)O[C@@](O)(CO)[C@H]2O)[C@H](O)[C@@H](O)[C@H]1O | 10% | 1 | -2% | 2% | 12%
11 | Nc1ncnc2c1ncn2[C@@H]1O[C@H](CO)[C@@H](O)[C@H]1O | 15% | 1 | 7%&-1% | 2% | -7%&-5%
12 | O=C(CSc1nccn1-c1ncc(C(F)(F)F)cc1Cl)c1ccc(Cl)cc1 | ? | 0 | -1% | 0% | -8%

cpd | A-T KAP1 phos | KCNH2 3.1 block | TCR activator | TSHR antag
1 | 13% | -4 | 8% | -30
2 | -1% | 9&14 | 12%&3% | -12&-6
3 | -3% | 8 | -19% | -15
4 | 3%&5% | ? | 1%&-1% | -6&-3
5 | 7%&-6%&-4% | -7&1&-4 | -11%&-4%&0% | -2&-1&9
6 | 2% | ? | 0% | -1
7 | -5% | -25 | 3% | 4
8 | -3% | 1 | 1% | -4
9 | · | -4 | -3% | 2
10 | -3% | -6 | -2% | 0
11 | -4% | 2 | 7% | -8&-3
12 | -1% | 0 | 0% | 6

Not a retest: 5 of the compounds above.
cpd | Structure | ELG1 repair inh | TRPV1 agonist | Mito fusion act | USP2a block | Eya2 inh
4 | CN(C)CC/C=C1/c2ccccc2Sc2ccc(Cl)cc21 | 10%&-1% | 0&3 | -6%&5% | 2%&3% | 4%&7%
5 | COc1ccc2c(c1OC)C(=O)OC2C1c2c(cc3c(c2OC)OCO3)CCN1C (stereo not given) | -19%&-9%&7% | 8&2&-2 | -4%&-9%&-6% | -2%&0%&3% | 2%&-15%&-3%
6 | COC(=O)c1[nH]c2cc(C)ccc2c1NC(=O)CN1CCCc2ccccc21 | ? | ? | 6% | -7% | -10%
7 | Nc1ccc(S(=O)(=O)c2ccc(N)cc2)cc1 | -5% | -2 | -5% | 6% | -13%
8 | O=C1CCC(C(=O)O)N1 (stereo not given) | -4% | 3 | 0% | -1% | -15%

cpd | A-T KAP1 phos | KCNH2 3.1 block | TCR activator | TSHR antag
4 | 3%&5% | ? | 1%&-1% | -6&-3
5 | 7%&-6%&-4% | -7&1&-4 | -11%&-4%&0% | -2&-1&9
6 | 2% | ? | 0% | -1
7 | -5% | -25 | 3% | 4
8 | -3% | 1 | 1% | -4

Later entries.
cpd | Structure | ELG1 repair inh | TRPV1 agonist | Mito fusion act | USP2a block | Eya2 inh
13 | CC[C@H](C)C(=O)O[C@H]1CCC=C2C=C[C@H](C)[C@H](CC[C@@H]3C[C@@H](O)CC(=O)O3)[C@H]21 | 6% | ? | -45%&0%&-4%[inhibitor] | -1%&2% | -7%&-12%&-2%
14 | C[C@H]1[C@H](C)CC[C@]2(C(=O)O)CC[C@]3(C)C(=CC[C@@H]4[C@@]5(C)C[C@@H](O)[C@H](O)C(C)(C)[C@@H]5CC[C@]43C)[C@H]12 | ? | 0 | -1% | 1% | -2%
15 | CCC1NC(=O)c2cc(S(N)(=O)=O)c(Cl)cc2N1 (stereo not given) | 12% | -1 | 1% | 1% | 5%
16 | CC(C)c1ccc(-c2nn(-c3ccccc3)cc2C2C(C#N)=C(N)OC3=C2C(=O)CC(C)(C)C3)cc1 (stereo not given) | ? | 4 | 8% | 1% | -3%
17 | NS(=O)(=O)c1cc2c(cc1C(F)(F)F)NCNS2(=O)=O | -2% | 0 | -2% | 5% | 1%
18 | NS(=O)(=O)c1ccc(NC(=O)CN2CCN(Cc3ccccc3)CC2)cc1 | 0% | -1 | -5% | 2% | 0%
19 | NC(=O)NO | 4% | 0 | -7%&1% | 4% | -7%&-19%
20 | OC1(c2ccccc2)CCN(Cc2ccccc2)CC1 | 9% | 2 | 11% | -1% | 8%
21 | Cc1ccc2c(c1)c1c3n2CCNC3CCC1 (stereo not given) | 14%&12% | 10 | -21% | 2%&-4% | -9%&-10%
22 | C#Cc1cccc(C(=O)N2CCCC(Nc3cccc(F)c3)C2)c1 (stereo not given) | 3% | ? | 13% | 2% | -8%
23 | CCOC(=O)OC(C)OC(=O)[C@@H]1N2C(=O)[C@@H](NC(=O)[C@H](N)c3ccccc3)[C@H]2SC1(C)C (stereo not given in full) | -2% | 5 | 1% | 3% | -1%
24 | CC/C(=C(\c1ccc(O)cc1)c1ccc(OCCN(C)C)cc1)c1ccccc1 | · | -3 | -1% | -10% | -4%

cpd | A-T KAP1 phos | KCNH2 3.1 block | TCR activator | TSHR antag
13 | 5% | 5 | -1% | -10&-7&1
14 | 4% | 5 | -3% | -7
15 | -5% | 10 | -2% | -7
16 | 1% | 19 | 0% | 32
17 | -7% | -3 | 6% | 15
18 | 2% | -27 | -2% | 14
19 | 2% | 9 | 3% | -9&0
20 | 3% | -14 | -14% | -8
21 | 1%&-3% | -8&15 | -7%&8% | 0&-8
22 | 5% | 7 | 5% | 4
23 | -5% | -13 | -16% | 1
24 | · | 1 | 1% | 6

Entries of single compounds from above.
CC/C(=C(\c1ccc(O)cc1)c1ccc(OCCN(C)C)cc1)c1ccccc1 reads ELG1 repair inh: ·; TRPV1 agonist: -3; Mito fusion act: -1%; USP2a block: -10%; Eya2 inh: -4%; A-T KAP1 phos: ·; KCNH2 3.1 block: 1; TCR activator: 1%; TSHR antag: 6
CCC1NC(=O)c2cc(S(N)(=O)=O)c(Cl)cc2N1 (stereo not given) reads ELG1 repair inh: 12%; TRPV1 agonist: -1; Mito fusion act: 1%; USP2a block: 1%; Eya2 inh: 5%; A-T KAP1 phos: -5%; KCNH2 3.1 block: 10; TCR activator: -2%; TSHR antag: -7

Some of these compounds in order of the Eya2 inh value, low to high:
item | Molecule | Eya2 inh
22 | C#Cc1cccc(C(=O)N2CCCC(Nc3cccc(F)c3)C2)c1 (stereo not given) | -8%
23 | CCOC(=O)OC(C)OC(=O)[C@@H]1N2C(=O)[C@@H](NC(=O)[C@H](N)c3ccccc3)[C@H]2SC1(C)C (stereo not given in full) | -1%
15 | CCC1NC(=O)c2cc(S(N)(=O)=O)c(Cl)cc2N1 (stereo not given) | 5%

(listing goes on)
cpd | Structure | ELG1 repair inh | TRPV1 agonist | Mito fusion act | USP2a block | Eya2 inh
25 | O=C(c1ccc(Cl)cc1)C1CCN(Cc2ccccc2)CC1 | -6% | 24 | -4% | 2% | 0%
26 | CCC(C)C(=O)OC1CCC=C2C=CC(C)C(CCC3CC(O)CC(=O)O3)C21 (stereo not given) | · | · | · | · | ·
27 | CCOc1ccccc1N1CN(CC)CNC1=S | 20% | 2 | -4% | 2% | 12%
28 | CC12C=CC(=O)C=C1CCC1C2C(=O)CC2(C)C1CCC2(O)C(=O)CO (stereo not given) | · | · | · | · | ·

cpd | A-T KAP1 phos | KCNH2 3.1 block | TCR activator | TSHR antag
25 | 0% | ? | 0% | 5
26 | · | 23 | -2% | ·
27 | 10% | 9 | 7% | 25
28 | · | 18 | -5% | ·

Not all compounds are listed (hit frequency here may not be typical).
